AmpC inh no det = AmpC beta-lactamase inhibition, detergent-free assay. hit rate 1.8% among 71,000. AmpC nitrocefin hydrolysis, absorbance 480 nm, no detergent; potencies from a single point are estimates. Potency, µM (top dose mostly 28.7 µM), without a hit: at the highest dose activity change, negative = inhibition; active = falling curve, for most hits resting on a single point; inconclusive = weak or doubtful change; inactive = flat or rising curve; note: % of control where 0% means no effect; about half of the hits show no inhibition at the top dose; a quarter of the inactives give rising signals
Target sequence (P00811 whole entry, looked up): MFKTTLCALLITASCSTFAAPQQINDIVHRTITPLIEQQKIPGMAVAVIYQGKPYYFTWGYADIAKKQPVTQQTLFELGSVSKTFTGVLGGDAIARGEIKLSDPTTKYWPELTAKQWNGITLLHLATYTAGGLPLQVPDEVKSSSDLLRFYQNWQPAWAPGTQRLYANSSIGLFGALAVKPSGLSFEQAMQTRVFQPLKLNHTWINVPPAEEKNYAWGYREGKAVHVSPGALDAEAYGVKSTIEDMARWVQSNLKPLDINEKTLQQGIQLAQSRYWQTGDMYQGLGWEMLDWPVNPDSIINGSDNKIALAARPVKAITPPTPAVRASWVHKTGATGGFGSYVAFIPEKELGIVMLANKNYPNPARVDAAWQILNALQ
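Enzyme, pH 7.0 phosphate. Compound titrations were pre-incubated with AmpC for 15 min at room temperature before nitrocefin (stock 800 uM) addition; product formation was recorded at 480 nm every 20 s for 4 min.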
* = called active by the depositor; u = inconclusive; [ ] = dose if it differs, or a comment. Potency is the fitted concentration of half-maximal effect.

SMILES | AmpC inh no det
O=C(CSc1nnc(NC(=O)C2CC2)s1)Nc1ccc(F)cc1 | -17.0%
C=CCN=C(NC#N)SCC(=O)NCc1ccccc1 | -11.1%
COc1ccc(C2=NOC(C(=O)NCc3ccccc3)C2)cc1 (centres undefined) | 1.1%
CCOC(=O)CNC(=O)C1c2cc(OC)c(OC)cc2C(=O)N(C)C1c1ccccc1F (centres undefined) | 36.2%
COCCCNC(=O)C(F)(F)C(F)(F)C(=O)NCCCOC | 2.0%
CCC(=O)c1cn(CC(=O)NCc2cccnc2)c2ccccc12 | 16.0%
Cc1ccc(Cl)cc1N1CCN(C(=O)c2cn(C)c(=O)c3c2c2ccccc2n3C)CC1 | 107.1%
O=C(Nc1ccccc1)N1CC2(CCN(C(=O)c3ccncc3)CC2)C1 | -3.0%
Cc1cc(NC(=O)c2cc(-c3ccncc3)nc3c(C)cccc23)no1 | 61.6%
Cn1c(=O)n(C)c2cc(NC(=O)C(F)(F)F)ccc21 | 24.4%
O=C(CSc1nc2ccncc2[nH]1)Nc1ccccc1C(F)(F)F | 2.5%
NC(=O)C1(N2CCCCC2)CCN(C(=O)c2cccs2)CC1 | 3.98µM*[single pt active]
Cc1ccc(C)c(OCC(O)CN2CCC(C)CC2)c1C (centres undefined) | -0.6%
CCSc1nc(-c2ccc(OC)cc2)ccc1C#N | 0.3%
Cc1ccc(S(=O)(=O)N2CCCC2C(=O)OCc2nc3ccccc3s2)cc1 (centres undefined) | 51.9%

Rewritten as labelled records: two of the compounds above
> Cc1cc(NC(=O)c2cc(-c3ccncc3)nc3c(C)cccc23)no1
- AmpC inh no det: 61.6%
> Cn1c(=O)n(C)c2cc(NC(=O)C(F)(F)F)ccc21
- AmpC inh no det: 24.4%

New compounds follow
SMILES | AmpC inh no det
COc1ccccc1CCNC(=O)C1CCCO1 (centres undefined) | -6.9%
CCn1c(COc2cccc(OC)c2)nnc1SCC(=O)N1CCOCC1 | 35.9%
Cc1nnc(NC(=O)c2ccc3ccccc3c2)o1 | 55.1%
O=C(Nc1ccc(F)cc1)N1CCn2c(nc3ccccc32)C1 | -11.0%
O=C(NC1CCS(=O)(=O)C1)C1CCCCN1S(=O)(=O)c1ccc(Cl)cc1 (centres undefined) | 0.0%
Cc1cc(Nc2ccccc2F)n2nc(C)nc2n1 | 0.8%
Cc1c(C(=O)NCc2ccccn2)oc2ccccc12 | 10.1%
Cc1cc(NC(=O)c2cccc(S(=O)(=O)N3CCCCCC3)c2)n(-c2ccccn2)n1 | 53.8%
COc1ccc(NC(=O)Cc2nc3ccccc3[nH]2)cc1 | 5.9%
CCCOC(=O)c1ccc(Nc2cc(C)nc3ncnn23)cc1 | 20.8%
Cc1ccc(-c2nc(CS(=O)CC(=O)NCc3ccccn3)c(C)o2)cc1 (centres undefined) | 3.98µM*[single pt active]
Cc1nc2ccccc2c2c1C(=O)N(CCC1=CCCCC1)C2=O | 72.6%
COCCn1c(C)cc(C(=O)COc2nc3ccccc3nc2C)c1C | 56.7%
CC1CN(S(=O)(=O)c2ccc(NC(=O)c3ccco3)cc2)CC(C)O1 (centres undefined) | -5.0%
Cc1ccc(S(=O)(=O)N(CC(=O)N2CCOCC2)CC(=O)N2CCOCC2)cc1 | 10.4%
CC(C)CN1CC2(CCN(C(=O)c3ccncc3)CC2)C1 | -5.5%
COc1ccc(CCN)cc1O | 10.2%
COC(=O)C1=C(C)N(C)C(=O)NC1c1ccc(O)c(OC)c1 (centres undefined) | 11.8%
CNC(=O)CSc1nnnn1-c1ccc(C)cc1C | -5.2%
O=c1c2ccccc2nc(SCc2nnc(-c3ccccc3)o2)n1-c1ccccc1 | -1.5%
CCOC(=O)c1cnc2sccn2c1=O | 3.9%
COc1ccc(NC(=O)C2=C(C)NC(=O)NC2c2cccc(OC)c2OC)c(OC)c1 (centres undefined) | 20.6%
Cc1ccc(-c2nnc3sc(C4COc5ccccc5O4)nn23)cc1 (centres undefined) | 23.9%
Cc1cc(C)c2nc(C(F)(F)F)nc(NCCCN3CCCC3=O)c2c1 | 2.7%
CCCCn1cnc2cc(NCc3ccncc3)ccc21 | -10.3%
CCOC(=O)Cc1nnc(NC(=O)CSc2nncn2C)s1 | 3.8%
C=C(C)CSc1nc(C)c(Cc2ccccc2)c(=O)[nH]1 | u
Cc1ccc(-n2c(-c3ccncc3)nnc2-c2cccs2)cc1 | 16.2%
COC(=O)c1ccc(CSc2nc(N)cc(N)n2)cc1 | -21.6%
CCS(=O)(=O)NCCCc1ccccc1 | -8.0%
CC(C)C1N=C2c3ccccc3N=C(SCC#N)N2C1=O (centres undefined) | -22.1%
O=C1c2ccccc2NC(c2ccc(Cl)cc2Cl)N1O (centres undefined) | u
COCCCn1c(-c2ccccc2)nc2ccccc2c1=O | 15.2%
C[C@H](CO)NC(=O)[C@H](C)[C@H]1C[C@]1(C)[C@H](NC(=O)OCc1ccccc1)c1ccccc1 | 107.2%
CC(C)NC(=O)N1CC[C@@]2(CCCN(C(=O)Oc3ccccc3)C2)C1 | 8.2%
Cc1cccc(CNc2ccnc(-c3ccccc3C(F)(F)F)n2)c1 | 1.1%
O=C(Nc1ccc(F)cc1F)c1cc2ncc(Br)cn2n1 | -24.7%
O=C(NCCN1C(=O)C2C3C=CC(C3)C2C1=O)Nc1ccccc1 (centres undefined) | 3.98µM*[single pt active]
O=C(CCc1ccccc1)Nc1nc2nc(-c3ccccc3)cc(=O)n2[nH]1 | -8.3%
COc1ccccc1N1CCN(C(=O)c2sc3nc(-c4ccccc4)cn3c2C)CC1 | 127.4%
COCc1cc(C)nc2sc(C(=O)Nc3nccs3)c(N)c12 | 6.2%
COc1ccc(CCN(C)Cc2c(F)cccc2F)cc1OC | 32.6%
O=C(NCC(=O)N(CCc1ccccc1)C(C(=O)NC1CCCC1)c1cccnc1)c1ccco1 (centres undefined) | 49.1%
CC(C)CNS(=O)(=O)c1ccc(CCC(=O)N2CCN(Cc3ccc4c(c3)OCO4)CC2)cc1 | 3.6%
Cc1ccc(-c2nc(C#N)c(N3CCCCC3)o2)cc1 | 11.7%

A different layout for part of the listing above.
Molecule: O=C(CCc1ccccc1)Nc1nc2nc(-c3ccccc3)cc(=O)n2[nH]1
- AmpC inh no det: -8.3%

Molecule: COc1ccc(CCN(C)Cc2c(F)cccc2F)cc1OC
- AmpC inh no det: 32.6%

Molecule: CC(C)C1N=C2c3ccccc3N=C(SCC#N)N2C1=O (centres undefined)
- AmpC inh no det: -22.1%

Molecule: CC(C)NC(=O)N1CC[C@@]2(CCCN(C(=O)Oc3ccccc3)C2)C1
- AmpC inh no det: 8.2%

Next part:
SMILES | AmpC inh no det
CCCCN(C)C(=O)Cn1cnc2sc(C)cc2c1=O | 3.9%
Cc1cc(S(=O)(=O)NCC(C)C)ccc1OCC(=O)N1CCN(Cc2ccccc2)CC1 | 111.3%
CCOc1ccc(-n2c(SCC(=O)Nc3ccc4c(c3)OCCO4)nc3c(c2=O)SCC3)cc1 | 40.7%
O=C(CSc1nnc(-c2ccc(Cl)s2)o1)N1CCc2ccccc21 | 1.3%
Cc1coc2cc3oc(=O)c4c(c3cc12)CCC4 | -11.4%
O=C(NCCCN1CCN(c2ccccc2F)CC1)C1CCCN(S(=O)(=O)c2cnc[nH]2)C1 (centres undefined) | 3.98µM*[single pt active]
COc1ccc(Cc2nc(-c3ccc(NC(=O)c4cccnc4)cc3)no2)cc1 | 13.3%
CCOC(=O)c1[nH]c2ccc(OCC)cc2c1NC(=O)CN1CCCC(C)C1 (centres undefined) | 32.1%
O=C1C2CC=CCC2C(=O)N1c1n[nH]c(Cc2ccccc2)n1 (centres undefined) | 5.1%
CCOC(=O)/C=C1\CC(=O)Nc2nonc2N1 | -16.1%
CC(C)(C)c1csc(NC(=O)c2cccs2)n1 | -8.6%
CCCn1c(=O)c(C(=O)Nc2c(C)n(C)n(-c3ccccc3)c2=O)c(O)c2ccccc21 | 23.5%
Cc1cc(NC(=O)CSc2nnc3c(C)cc4cc5c(cc4n23)OCO5)no1 | 10.9%
Cn1nccc1C(=O)OCC(=O)Nc1nc(-c2ccccc2)cs1 | -7.4%
Cc1nc2c3c(-c4ccccc4)c(-c4ccccc4)oc3ncn2n1 | 17.6%
O=C(O)c1cc2cc(Cc3cccnc3)ccc2o1 | 12.7%
COc1ccc(C(=O)N2CCOCC2)cc1S(=O)(=O)N1CCC(C)CC1 | 3.8%
O=S(=O)(NCc1ccccn1)c1cccc2cccnc12 | 11.0%
CCOc1ccc(-c2n[nH]c(C)c2-c2ccccc2OC)c(O)c1 | 2.6%
CCOC(=O)c1cc2sccc2n1CCCN1C(=O)c2ccccc2C1=O | 36.4%
O=C(O)c1ccc(NS(=O)(=O)/C=C/c2ccccc2)cc1 | -0.3%
Cc1coc(C)c1C(=O)CC1(O)C(=O)N(Cc2ccccc2)c2ccccc21 (centres undefined) | 18.6%
CCOC(=O)c1[nH]c2ccc(OC)cc2c1NC(=O)C(C)N1CCC2(CC1)OCCO2 (centres undefined) | 22.0%
Cc1nnc(NC(=O)C(C)Oc2ccc3c(C)cc(=O)oc3c2)s1 (centres undefined) | 30.6%
CC(C)CCn1nnnc1C(c1ccccc1)N1CCC(C(N)=O)CC1 (centres undefined) | 46.3%
O=C(CN1CCCCC1)Nc1ccc(F)c(Cl)c1 | -5.8%
O=C(NCc1cccs1)C1CC(=O)N(c2ccccc2)C1 (centres undefined) | 0.6%
CC(=O)Nc1ccc(S(=O)(=O)Nc2cccc(-c3nc4cc(C)ccc4o3)c2)cc1 | 38.5%
COc1ccc(CNC(=O)CN(c2cccc(OC)c2)S(C)(=O)=O)cc1 | 9.2%
COc1ccccc1NC(=O)c1cccc(S(=O)(=O)N2CCOCC2)c1 | 24.9%
COc1ccc(-c2nc(C#N)c(NCCN(C)C)o2)cc1 | 4.2%
COC(=O)c1ccccc1NC(=O)c1ccc(F)cc1 | 24.4%
C=C(C)[C@@H]1CN[C@H](C(=O)O)[C@H]1CC(=O)O | -7.0%
O=C(O)C1C2C=CC(O2)C1C(=O)Nc1ccc(S(=O)(=O)Nc2ccccc2)cc1 (centres undefined) | 1.9%
O=C1c2ccccc2NC2CCCCCN12 (centres undefined) | 0.7%
S=C(S)NCCCn1ccnc1 | -18.6%[5.75 µM]
COc1cc2c(cc1OC)CN(C(=O)C1(c3ccccc3)CC1)CC2 | -11.4%
CCCOc1ccc(N2C(=O)CC(NCCNc3ccc(S(=O)(=O)CC)cc3)C2=O)cc1 (centres undefined) | 62.0%
Cc1cc2nc(NC3=NCN(Cc4cccnc4)CN3)nc(C)c2cc1C | 1.0%
Cc1noc(C)c1-c1ccc2ncnc(NC3CCNCC3)c2c1 | -7.7%
O=C(COc1ccc(Cl)cc1Cl)Nc1ccccn1 | -1.9%
CCOC(=O)CNC(=O)CSc1nc(N)cc(N)n1 | -5.5%
Cn1c(=O)c2c(nc(N3CCCCC3)n2CCNC2=NCCC2)n(C)c1=O | 1.2%
Cc1[nH]c2ccccc2c1C(=O)CN1CCCC1 | 8.9%
CC1(C)CC(=O)C(C=NCCN2CCOCC2)=C(O)C1 | -3.3%
COC(=O)c1cc2sccc2n1Cc1ccc(C)cc1 | -5.8%
CC1=CCC(Cc2nc3ccccc3o2)C1(C)C (centres undefined) | 44.0%
C=C(C)COc1ccc2c(c1)CCC1C2CC[C@]2(C)C(=O)/C(=N/O)CC12 (some centres undefined) | -10.3%[5.75 µM]
Cc1ccc(-n2nc(C)c(C3C(C#N)=C(N)OC4=C3C(=O)CC(C)(C)C4)c2Cl)cc1 (centres undefined) | 26.8%
Cc1cccc(NC(=O)C2CCN(c3nccc(C)n3)CC2)c1 | 29.1%
CC(C)OC(=O)CSc1nnc(-c2ccc(Cl)cc2Cl)n1N | -4.9%
N[C@H](C(=O)O)c1ccc(C(=O)O)c(O)c1 | 8.2%
COCCNc1oc(COc2cccc(C)c2)nc1C#N | 13.6%
CN1CCc2c(c3ccccc3n2Cc2ccccc2)C1 | 21.7%
CCCCCC[C@@H]([C@@H](C)O)n1cnc2c(N)ncnc21 | 26.0%
O=C(NCc1ccco1)Nc1ccc2nsnc2c1 | -15.5%
O=C(c1ccc(Cn2cc(Cl)cn2)cc1)N1CCN(c2ccccc2)CC1 | 78.2%
CCCC(=O)Nc1ccc(NC(=O)Cc2ccccc2)cn1 | -6.3%
Fc1cccc(NCc2ccoc2)c1 | 7.1%
Cc1noc(C)c1-c1nc(Nc2ccccc2)c2ccccc2n1 | -7.6%

Four entries picked at random from those above:
SMILES | AmpC inh no det
Cc1ccc(Cl)cc1N1CCN(C(=O)c2cn(C)c(=O)c3c2c2ccccc2n3C)CC1 | 107.1%
Cc1cc2nc(NC3=NCN(Cc4cccnc4)CN3)nc(C)c2cc1C | 1.0%
COCCCNC(=O)C(F)(F)C(F)(F)C(=O)NCCCOC | 2.0%
CCCCN(C)C(=O)Cn1cnc2sc(C)cc2c1=O | 3.9%

Continuation.
SMILES | AmpC inh no det
CC(C)[C@@H](CC(=O)N[C@@H]1CCCC[C@H]1C(=O)N[C@H](CC(=O)N[C@@H](CCC(=O)O)CC(=O)O)Cc1c[nH]c2ccccc12)NC(=O)C[C@H](Cc1c[nH]c2ccccc12)NC(=O)[C@@H]1CCCC[C@H]1N | 136.0%
CCCS(=O)(=O)N1CCC(C(=O)N2CCCC2)CC1 | -8.7%
Nc1ccc(-c2cc(N)n(-c3ccccc3)n2)cc1 | 35.4%
Cn1c(CN2CCCCC2)nc2cc(NC(=O)c3ccccc3)ccc21 | -1.5%
O=C(Cn1nnc(-c2ccc(N3CCOCC3)cc2)n1)OC1CCCCC1 | 54.5%
Cc1cccc(N2CCN(c3cccc(C)c3)C2c2cccnc2)c1 | 32.0%
COc1ccc(-c2nc3cnc(N4CCOCC4)nc3n(C[C@H]3CCCO3)c2=O)cc1 | -7.6%
CCOc1ccc(N(CC(=O)Nc2ccc(OC)cc2)S(C)(=O)=O)cc1 | 1.4%
Cc1cc(S(=O)(=O)NCc2ccccc2)ccc1OCC(=O)N1CCN(C)CC1 | 36.7%

Screens: PubChem, National Center for Advancing Translational Sciences (NCATS)

Only part of the results is shown. The share of hits here may be higher or lower than overall.
